FGF22 binding – binders of human FGF22 protein, primary screen, FGF22 synaptogenesis inhibitor project, biophysical, thermal shift, single point | Fibroblast growth factor 22 (Homo sapiens), Q9HCT0 | recombinant FGF22 thermal shift, SYPRO orange fluorescence; percent of sucrose octasulfate shift, DMSO zero | calls only at 9.99 µM | 340,000 tested, 1.5% active | AID 651658, 2012;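 active means melting point raised past a set limit in the mean and every replicate; three in four hits are not shown here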
Target sequence (Q9HCT0 whole entry, looked up): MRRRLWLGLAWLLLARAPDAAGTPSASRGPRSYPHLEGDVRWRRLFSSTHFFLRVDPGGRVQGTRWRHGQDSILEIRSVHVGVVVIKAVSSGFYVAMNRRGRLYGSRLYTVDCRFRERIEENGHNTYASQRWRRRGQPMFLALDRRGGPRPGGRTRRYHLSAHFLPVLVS
AF4-AF9 inh – inhibitors of AF4 peptide binding to AF9, primary screen, biochemical, AlphaScreen, biotin-AF4 peptide, FLAG-AF9, single point | inhibition, % at 10 µM | 350,000 tested, 0.47% active | AID 651704, 2012;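 active means every replicate reaching a set inhibition limit, whatever the replicate mean, cut at about 25% in these data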;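 further: 0% = plate neutral control median and 100% = total signal loss; the record names both 10 and 1 µM as test concentration; the first replicate is given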
Target sequence (P42568 whole entry, looked up): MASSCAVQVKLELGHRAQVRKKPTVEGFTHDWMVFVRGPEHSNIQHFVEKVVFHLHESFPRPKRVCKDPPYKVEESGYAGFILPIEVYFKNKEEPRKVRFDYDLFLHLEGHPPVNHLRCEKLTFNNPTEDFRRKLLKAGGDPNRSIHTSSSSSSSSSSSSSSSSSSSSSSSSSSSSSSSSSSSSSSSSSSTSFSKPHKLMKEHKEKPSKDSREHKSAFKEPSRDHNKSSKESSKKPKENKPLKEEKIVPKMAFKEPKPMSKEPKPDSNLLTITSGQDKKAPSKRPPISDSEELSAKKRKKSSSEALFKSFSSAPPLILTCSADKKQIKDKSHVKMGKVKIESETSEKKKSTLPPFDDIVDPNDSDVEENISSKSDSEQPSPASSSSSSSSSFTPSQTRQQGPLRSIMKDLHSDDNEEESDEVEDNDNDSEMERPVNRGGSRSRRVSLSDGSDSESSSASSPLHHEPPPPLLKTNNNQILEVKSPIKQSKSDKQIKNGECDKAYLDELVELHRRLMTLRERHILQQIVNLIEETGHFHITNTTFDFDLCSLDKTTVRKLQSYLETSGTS
Numbers without * were called inactive; i = inactive; & = joins results of further samples. Not all compounds are listed; count on the stated rates, not on these rows.

Sequence of screens – FGF22 binding	AF4-AF9 inh
- C[C@@H]1CN([C@H](C)CO)C(=O)CCCn2nncc2CO[C@@H]1CN(C)C(=O)c1ccc2ccn(C)c2c1
  i	-1.4
- COC(=O)[C@H]1[C@H](CO)[C@H]2Cn3c(ccc(-c4ccc(F)cc4)c3=O)[C@H]2N1C
  i	-2.2
- C[C@@H]1CN([C@H](C)CO)C(=O)c2cccc(NS(=O)(=O)c3ccc(Cl)cc3)c2O[C@@H]1CN(C)Cc1ccc2c(c1)OCO2
  i	20
- C[C@@H]1CN([C@@H](C)CO)C(=O)c2cc(NS(=O)(=O)c3cccs3)ccc2O[C@@H](C)CCCCO[C@H]1CN(C)C(=O)Nc1ccc(F)cc1
  i	-0.6
- C[C@@H]1CN([C@@H](C)CO)C(=O)c2cccc(NC(=O)Nc3ccc(C(F)(F)F)cc3)c2O[C@H]1CN(C)C(=O)Nc1cccc2ccccc12
  i	-3.0
- COc1ccc(NC(=O)N(C)C[C@@H]2OCCCC[C@H](C)Oc3ccc(NS(=O)(=O)c4ccc(F)cc4)cc3C(=O)N([C@H](C)CO)C[C@@H]2C)cc1
  i	0.6
- C[C@H]1CN([C@@H](C)CO)C(=O)c2cccc(NC(=O)c3ccc(-c4nccs4)cc3)c2O[C@@H]1CN(C)Cc1ccc(C(=O)O)cc1
  i	11
- C=CCOC(=O)[C@H]1[C@@H]2C(=O)O[C@@H](c3ccccc3)[C@@H](c3ccccc3)N2[C@@H](c2ccc(OCCOC(=O)[C@@H]3C[C@@H]4C(=O)N[C@@H](CC(C)C)C(=O)N4[C@@H]3c3cccc(OCCO)c3)cc2)[C@]12C(=O)Nc1ccccc12
  i	-0.8
- C[C@@H]1CN([C@H](C)CO)C(=O)c2ccccc2-c2ccccc2CO[C@H]1CN(C)C(=O)[C@@H](Cc1ccccc1)N(C)C
  i	-0.5
- C[C@H](CO)N1C[C@H](C)[C@@H](CN(C)CC2CCCCC2)Oc2ccc(NC(=O)Nc3ccc(C(F)(F)F)cc3)cc2C1=O
  i	-1.5
- Cc1noc(C)c1NC(=O)Nc1ccc2c(c1)CC(=O)N([C@H](C)CO)C[C@@H](C)[C@H](CN(C)C(=O)Nc1ccc(C(F)(F)F)cc1)O2
  i	-0.1
- C[C@@H]1CN([C@H](C)CO)S(=O)(=O)c2ccc(C#CC3(O)CCCC3)cc2O[C@H]1CN(C)C(=O)Cc1ccncc1
  i	1.3
- C[C@H](NC(=O)C[C@@H]1C[C@@H]2c3cc(NC(=O)CC4CC4)ccc3O[C@@H]2[C@H](CO)O1)c1ccccc1
  i	0.4
- COc1ccc(NC(=O)N(C)C[C@H]2Oc3ccc(NC(=O)Cc4cn(C)c5ccccc45)cc3CC(=O)N([C@H](C)CO)C[C@@H]2C)cc1
  i	2.5
- COc1ccccc1C(=O)Nc1ccc2c(c1)C(=O)N(C)C[C@H](OC)[C@H](C)CN[C@@H](C)CO2
  i	-2.0
- C[C@H]1CN([C@@H](C)CO)S(=O)(=O)c2ccc(C#CC3CC3)cc2O[C@@H]1CN(C)C(=O)c1ccccc1
  i	2.4
- CO[C@@H](CN(C)S(=O)(=O)c1ccc(Cl)cc1)[C@@H](C)CN(C(=O)Nc1ccccc1F)[C@H](C)CO
  i	-5.3
- COc1ccc(S(=O)(=O)N(C)C[C@H]2OCCCC[C@@H](C)Oc3ccc(NC(=O)Cc4ccccc4)cc3C(=O)N([C@@H](C)CO)C[C@H]2C)cc1
  i	0.1
- O=C(C[C@@H]1C=C[C@@H](NC(=O)CC2CC2)[C@@H](CO)O1)NCc1ccc(-c2ccccc2)cc1
  i	1.7
- Cc1ccc(S(=O)(=O)N(C)C[C@@H]2Oc3ccc(N(C)C)cc3C(=O)N([C@H](C)CO)C[C@H]2C)cc1
  i	2.6
- C[C@@H]1CN([C@@H](C)CO)C(=O)c2cc(NC(=O)Nc3ccc(F)cc3)ccc2O[C@H]1CN(C)S(=O)(=O)c1ccccc1
  i	2.0
- CCCNC(=O)N1CC2(CCN(C(=O)CCC)CC2)c2c(n(C)c3cc(OC)ccc23)[C@H]1CO
  i	2.5
- Cc1cc(C(=O)Nc2ccc3c(c2)C(=O)N(C)[C@H]2CC[C@H](CC(=O)NCC(F)(F)F)O[C@@H]2CO3)no1
  i	-3.4
- CO[C@H]1CC[C@H]2CCN(C)C(=O)[C@H](C)[C@H](OC)CN(C)C(=O)c3cccc(C#N)c3OC[C@H]1O2
  i	-2.2
- Cc1ccc(S(=O)(=O)N(C)C[C@@H]2OCCCC[C@H](C)Oc3ccc(NS(=O)(=O)c4ccc(Cl)cc4)cc3C(=O)N([C@@H](C)CO)C[C@H]2C)cc1
  i	-2.6
- C[C@H](CO)N1C[C@H](C)[C@@H](CN(C)S(=O)(=O)c2ccccc2)OCCCC[C@H](C)Oc2ccc(NC(=O)c3ccccc3)cc2C1=O
  i	0.0
- C/C=C/c1ccc2c(c1)O[C@@H](CN(C)CC1CCCCC1)[C@@H](C)CN([C@@H](C)CO)S2(=O)=O
  i	15
- C[C@@H]1CN([C@H](C)CO)C(=O)c2cc(NC(=O)CCC(F)(F)F)ccc2O[C@@H](C)CCCCO[C@@H]1CN(C)S(=O)(=O)c1ccccc1
  i	-6.1
- COC(=O)N(C)C[C@H]1OCc2cnnn2CCCC(=O)N([C@H](C)CO)C[C@@H]1C
  i	-2.0&-1.0
- CC=Cc1ccc2n(c1=O)C[C@H]1[C@H](CO)[C@@H](C(=O)NCc3ccncc3)N(Cc3cncnc3)[C@@H]21 (mixture of isomers)
  i	-1.5
- CCC(=O)N(C)C[C@H]1Oc2cc(-c3ccc(F)cc3)ccc2S(=O)(=O)N([C@H](C)CO)C[C@H]1C
  i	-2.4
- COCCNC(=O)C[C@@H]1CC[C@H]2[C@@H](COC[C@@H](O)CN2C(=O)Nc2ccccc2OC)O1
  i	-1.5
- C[C@H]1CN([C@@H](C)CO)C(=O)Cc2cc(NS(=O)(=O)c3ccc(Cl)cc3)ccc2O[C@@H]1CN(C)Cc1ccc(C(=O)Nc2ccccc2N)cc1
  i	-2.1
- CC(C)NC(=O)N(C)C[C@H]1Oc2ccc(NS(=O)(=O)c3ccc(F)cc3)cc2C(=O)N([C@@H](C)CO)C[C@@H]1C
  i	-1.0
- C[C@@H]1CN([C@H](C)CO)C(=O)c2cccc(NC(=O)Nc3cccc4ccccc34)c2O[C@@H]1CN(C)S(=O)(=O)c1ccc(F)cc1
  i	2.2
- C[C@H](CO)N1C[C@H](C)[C@H](CN(C)Cc2ccc(Cl)c(Cl)c2)Oc2c(NS(=O)(=O)c3ccccc3)cccc2C1=O
  i	1.9
- C[C@@H]1CN([C@@H](C)CO)C(=O)c2cc(-c3ccc(F)cc3)cnc2O[C@@H]1CN(C)Cc1ccccn1
  i	-3.8
- COc1ccc2c3c(n(C)c2c1)[C@H](CO)N(CC1CCCC1)CC31CCN(C(C)=O)CC1
  i	3.0
- O=C(Nc1ccc(Cl)cc1)N1C[C@H]2[C@@H](c3ccccc31)[C@H](CO)N2C(=O)c1ccccn1
  i	-1.2
- C[C@@H]1CN([C@@H](C)CO)C(=O)Cc2cc(NC(=O)c3ccncc3)ccc2O[C@@H]1CN(C)S(=O)(=O)c1ccc(Cl)cc1
  i	-0.3
- CN(C)c1ccc2c(c1)[C@@H]1C[C@H](CC(=O)N3CCc4ccccc4C3)O[C@@H](CO)[C@@H]1O2
  i	5.1
- O=C(Nc1ccc2c(c1)OCO2)N[C@@H]1CC[C@H](CCNC(=O)C2CCCCC2)O[C@@H]1CO
  i	0.4
- C[C@@H]1CN([C@H](C)CO)C(=O)c2cc(NC(=O)C3CC3)ccc2O[C@H]1CN(C)Cc1ccc(-c2ccccc2)cc1
  i	8.6
- Cc1ccc(S(=O)(=O)Nc2cccc3c2O[C@@H](CN(C)C(=O)NC2CCCCC2)[C@@H](C)CN([C@@H](C)CO)C3=O)cc1
  i	-2.3
- COc1ccc2c3c([nH]c2c1)[C@@H](CO)N(C(=O)c1ccccc1)CC31CCN(C(=O)c2cccc(F)c2)CC1
  i	-3.0
- COc1cccc(S(=O)(=O)Nc2ccc3c(c2)[C@@H]2C[C@@H](CC(=O)N4CCCCC4)O[C@@H](CO)[C@@H]2O3)c1
  i	-0.9
- COc1cccc(S(=O)(=O)Nc2ccc3c(c2)[C@@H]2C[C@@H](CC(=O)NC4CCCCC4)O[C@H](CO)[C@@H]2O3)c1
  i	-0.8
- C[C@H](CO)N1C[C@H](C)[C@@H](CN(C)S(=O)(=O)c2ccc(Cl)cc2)OCc2ccccc2-c2c(n(C)c3ccccc23)C1=O
  i	2.6
- C[C@@H]1CCCCO[C@@H](CN(C)S(=O)(=O)c2cn(C)cn2)[C@H](C)CN([C@H](C)CO)C(=O)c2cc(NC(=O)Nc3ccc4c(c3)OCO4)ccc2O1
  i	6.6
- COc1ccc(S(=O)(=O)Nc2ccc3c(c2)C(=O)N([C@@H](C)CO)C[C@H](C)[C@@H](CN(C)C(=O)c2ccccc2)OCCCC[C@H](C)O3)cc1
  i	-2.8
- C[C@H](CO)N1C[C@H](C)[C@@H](CN(C)S(=O)(=O)c2ccccc2)Oc2ncc(C#CC3CCCCC3)cc2C1=O
  i	3.4
- COc1ccccc1CNC(=O)C[C@@H]1CC[C@@H]2[C@H](COc3ccc(NS(=O)(=O)c4ccc(C)cc4)cc3C(=O)N2C)O1
  i	-12
- CCC(=O)Nc1ccc2c(c1)C(=O)N(C)C[C@H](OC)[C@@H](C)CN(C(=O)COC)[C@H](C)CO2
  i	-1.7
- O=C(NCC[C@H]1CC[C@@H](NS(=O)(=O)c2cccc(F)c2)[C@H](CO)O1)C1CCOCC1
  i	-1.8
- CC(=O)N(C)C[C@H]1Oc2ncc(C#Cc3ccncc3)cc2C(=O)N([C@@H](C)CO)C[C@H]1C
  i	-18
- CCCN(C)C[C@H]1Oc2cc(C#C[C@H](C)O)ccc2S(=O)(=O)N([C@H](C)CO)C[C@H]1C
  i	-1.9
- C[C@H]1CN([C@@H](C)CO)C(=O)c2cc(NC(=O)c3ccncc3)ccc2O[C@H]1CN(C)S(C)(=O)=O
  i	-5.1
- CCCN(C)C[C@@H]1OCCCC[C@@H](C)Oc2ccc(NC(=O)C3CCCCC3)cc2C(=O)N([C@H](C)CO)C[C@@H]1C
  i	-2.9
- COc1ccccc1C#Cc1ccc([C@@H]2[C@H](CO)N3CCCCN(C(=O)C4CC4)C[C@@H]23)cc1
  i	6.4
- C[C@H](CO)N1C[C@H](C)[C@H](CN(C)C(=O)c2ccncc2)Oc2cc(C3=CCCC3)ccc2S1(=O)=O
  i	-1.9

Quoted at random: two entries already listed.
Sequence of screens – FGF22 binding	AF4-AF9 inh
- CCC(=O)Nc1ccc2c(c1)C(=O)N(C)C[C@H](OC)[C@@H](C)CN(C(=O)COC)[C@H](C)CO2
  i	-1.7
- O=C(NCC[C@H]1CC[C@@H](NS(=O)(=O)c2cccc(F)c2)[C@H](CO)O1)C1CCOCC1
  i	-1.8

Other entries
Sequence of screens – FGF22 binding	AF4-AF9 inh
- C[C@H]1CN([C@@H](C)CO)C(=O)Cc2cc(NS(=O)(=O)c3ccc(F)cc3)ccc2O[C@@H]1CN(C)C(=O)NC1CCCCC1
  i	-1.5
- CC(C)NC(=O)Nc1ccc2c(c1)C(=O)N([C@@H](C)CO)C[C@H](C)[C@H](CN(C)Cc1ccc3c(c1)OCO3)O2
  i	-1.2
- C[C@@H]1CN([C@H](C)CO)S(=O)(=O)c2ccc(-c3ccccc3F)cc2O[C@@H]1CN(C)Cc1cccnc1
  i	10
- C[C@H](CO)N1C[C@H](C)[C@H](CN(C)S(=O)(=O)c2ccc(Cl)cc2)Oc2c(NC(=O)Nc3ccccc3)cccc2C1=O
  i	1.8
- CO[C@H]1CN(C)C(=O)c2ccc(NS(=O)(=O)c3ccccc3)cc2OC[C@@H](C)N(C(=O)NC(C)C)C[C@H]1C
  i	-0.7
- CO[C@H]1CN(C)C(=O)c2ccc(NC(=O)C3CCCC3)cc2OC[C@@H](C)N(CCC(F)(F)F)C[C@H]1C
  i	28*
- COc1ccc(S(=O)(=O)Nc2ccc3c(c2)CC(=O)N([C@H](C)CO)C[C@H](C)[C@H](CN(C)Cc2ccc4c(c2)OCO4)O3)cc1
  i	1.6
- CC(C)NC(=O)N(C)C[C@@H]1Oc2ccc(NC(=O)Nc3ccc(C(F)(F)F)cc3)cc2CC(=O)N([C@H](C)CO)C[C@H]1C
  i	-1.5
- COc1ccc(S(=O)(=O)Nc2ccc3c(c2)C(=O)N([C@@H](C)CO)C[C@@H](C)[C@H](CN(C)C(=O)c2ccncc2)OCCCC[C@H](C)O3)cc1
  i	-3.9
- O=C(Nc1ccc2c(c1)[C@H]1C[C@H](CC(=O)N3CCOCC3)O[C@@H](CO)[C@H]1O2)Nc1ccccc1F
  i	-2.2

5 successive compounds already listed, quoted:
Sequence of screens – FGF22 binding	AF4-AF9 inh
- CO[C@H]1CN(C)C(=O)c2ccc(NC(=O)C3CCCC3)cc2OC[C@@H](C)N(CCC(F)(F)F)C[C@H]1C
  i	28*
- COc1ccc(S(=O)(=O)Nc2ccc3c(c2)CC(=O)N([C@H](C)CO)C[C@H](C)[C@H](CN(C)Cc2ccc4c(c2)OCO4)O3)cc1
  i	1.6
- CC(C)NC(=O)N(C)C[C@@H]1Oc2ccc(NC(=O)Nc3ccc(C(F)(F)F)cc3)cc2CC(=O)N([C@H](C)CO)C[C@H]1C
  i	-1.5
- COc1ccc(S(=O)(=O)Nc2ccc3c(c2)C(=O)N([C@@H](C)CO)C[C@@H](C)[C@H](CN(C)C(=O)c2ccncc2)OCCCC[C@H](C)O3)cc1
  i	-3.9
- O=C(Nc1ccc2c(c1)[C@H]1C[C@H](CC(=O)N3CCOCC3)O[C@@H](CO)[C@H]1O2)Nc1ccccc1F
  i	-2.2

High-throughput results from PubChem.
